VDR inh: blocks the human vitamin D receptor; 400,000 tested, 0.93% active; Potency, µM, for the others: max response, negative = inhibition, most hits filed as inhibitors; P11473; AID 504847; VDR-SRC2-3 peptide fluorescence polarization, 2 h; active = well fitted inhibition curve with a large enough effect; note: series mostly up to about 120 µM
Target sequence (P11473 whole entry, looked up): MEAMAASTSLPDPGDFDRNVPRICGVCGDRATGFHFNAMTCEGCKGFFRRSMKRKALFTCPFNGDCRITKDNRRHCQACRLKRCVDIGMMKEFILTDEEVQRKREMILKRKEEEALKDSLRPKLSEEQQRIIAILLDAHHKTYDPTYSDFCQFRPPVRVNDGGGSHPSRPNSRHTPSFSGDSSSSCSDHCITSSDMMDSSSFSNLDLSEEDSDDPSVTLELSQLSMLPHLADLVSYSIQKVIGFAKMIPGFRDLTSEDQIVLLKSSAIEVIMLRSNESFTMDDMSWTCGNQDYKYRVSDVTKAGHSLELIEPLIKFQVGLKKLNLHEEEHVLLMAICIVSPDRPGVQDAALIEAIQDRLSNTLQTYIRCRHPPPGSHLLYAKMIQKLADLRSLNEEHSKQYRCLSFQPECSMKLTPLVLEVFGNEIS
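VDR–SRC2-3 interaction, FP format. Cmpds 23 nl via pintool, brief spin, 2 h ambient incubation.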
Starred values were filed as active, the others as inactive; & = joins results of further samples. % is set by controls: 0 for no effect and ±100 for the full control effect; potency is the fitted concentration of half-maximal effect. Only part of the results is shown (hit frequency here may not be typical).

SMILES | VDR inh
NS(=O)(=O)c1ccc(CNC(=O)c2ccncc2)cc1 | 12%
CC(=O)NC1=NN(C(C)=O)C(c2ccco2)S1 (configuration not stated) | -4%
CC(=O)NC(CC(=O)NCCOc1ccccc1F)c1ccccc1 (configuration not stated) | 4%
CCOC(=O)/C(C#N)=C\c1ccc(OC)c(OC)c1 | 0%
O=C(O)c1cccc2c1C(=O)N(CC1CCCO1)C2 (configuration not stated) | 6%
CCOc1ccc(N2CC(C(=O)NNC(=O)c3ccc(Br)cc3)CC2=O)cc1 (configuration not stated) | -5%
COc1cccc(/C=N/Nc2ncc(C(F)(F)F)cc2Cl)c1O | -4%
O=C(c1cc([N+](=O)[O-])[nH]n1)N1CCSCC1 | -11%
O=C(Nc1ccc(Nc2ccncc2)cc1)c1ccc([N+](=O)[O-])cc1 | -16%
CCCN(CCC)CCCNC(=O)C1CCCN(Cc2nc(-c3ccc(Cl)cc3)oc2C)C1 (configuration not stated) | -15%
O=C1NC(=O)/C(=C\c2ccccc2OCc2cccc([N+](=O)[O-])c2)N1 | -11%
CC(C)n1cc(-c2ccc(Cl)cc2)cc(C#N)c1=O | -7%
NS(=O)(=O)c1ccc(CNC(=S)Nc2ccc(Cl)c(Cl)c2)cc1 | -8%
CCOC(=O)c1c(N)sc2c(OC)c(Br)ccc12 | -4%
O=Cc1ccc(OCc2ccc3ccccc3c2)cc1 | -4%
CC(C)=CCN1CCN(C/C(Cl)=C/c2ccccc2)CC1CCO (configuration not stated) | 11%
COc1ccc(NC(=O)c2c(NCc3cccs3)sc3c2CCCC3)cc1 | -5%
CCOc1ncccc1C(=O)Nc1ccc(S(=O)(=O)N2CCCC2)cc1 | -16%
O=C1CCCc2nc(NCc3ccco3)ncc21 | -1%
C=CCC(C)(NCc1ccccc1)c1ccco1 (configuration not stated) | 17%
Cc1cc(C)c(S(C)(=O)=O)c(Oc2ccc(F)cc2)n1 | -23%
Cc1sc(NC(=O)C2CSC3(C)CCC(=O)N23)nc1-c1ccc(F)cc1 (configuration not stated) | -28%
O=C(Cn1ccc2ccccc2c1=O)NCC(=O)Nc1ccc(F)cc1F | -9%
O=C(Nc1cccc(-c2cn3ccsc3n2)c1)c1ccccc1 | 7%
O=C(Nc1sc2c(c1C(=O)Nc1ccccc1Cl)CCCC2)c1ccccc1F | -19%

Of the compounds above, 2 contain bromine:
SMILES | VDR inh
CCOc1ccc(N2CC(C(=O)NNC(=O)c3ccc(Br)cc3)CC2=O)cc1 (configuration not stated) | -5%
CCOC(=O)c1c(N)sc2c(OC)c(Br)ccc12 | -4%

Carrying on.
SMILES | VDR inh
O=C(c1ccc(F)cc1)c1cn(Cc2ccccc2)c2cc3c(cc2c1=O)OCO3 | -2%
CC(C)[C@@H](C(=O)OCC(=O)Nc1ccc2c(c1)OCO2)N1C(=O)c2ccccc2C1=O | 21%
COc1ccc(S(=O)(=O)N(CC(=O)N2CCC(C)CC2)c2ccc(C)cc2)cc1 | 1%
O=C1NCCN1Cc1ccc(Cl)cc1 | -10%
O=C(CCC(=O)Nc1ccc(F)cc1)N/N=C/c1ccc(O)cc1 | 10%
Cc1nc2cc(-c3cccc(F)c3)nn2c(C)c1CCC(=O)NC(C)c1ccccc1 (configuration not stated) | -4%
C[C@@]12CC(=O)NC1N(C(=O)c1cccc(C(F)(F)F)c1)C(c1ccccc1O)C2 (some centres not stated) | 2%
N#Cc1c(NC(=O)CSc2nnnn2C2CCCCC2)sc2c1CCCC2 | 8%
CCOc1ccc(CNC(=O)c2cnc(SC)nc2C)cc1 | 18%
O=C(COc1ccc(Cl)cc1)Nc1nnc(-c2ccc3c(c2)CCCC3)o1 | -7%
CCc1nc(SCC(=O)Nc2nnc(CC(C)C)s2)n[nH]1 | -2%
CC(=O)N1C[C@H]2CON(C)[C@H]2C[C@H]1c1cccc(-c2ccccc2)c1 | 10%
CC(=O)Nc1ccc(OCC(O)Cn2nc(C)c(C)c2C)cc1 (configuration not stated) | -17%
Cc1ccc(NC(=O)CN(C)C(=O)c2ccc(OCc3cn4ccccc4n3)cc2)cc1 | -3%
O=C(Nc1ccc(O)c(-c2nc3ccccc3o2)c1)c1ccc(-c2cccc(Cl)c2)o1 | 6%
C/C(Cn1nnc([N+](=O)[O-])n1)=N\NC(=O)c1ccccc1Cl | -4%
O=C(c1ccccc1)N(C(=O)c1ccccc1)c1ncnc2c1C(c1ccccc1)c1c(ccc3ccccc13)O2 (configuration not stated) | -5%
CC1(C(=O)N/N=C/c2ccccc2)CC1(Br)Br (configuration not stated) | -13%
CCCC(=O)c1c[nH]c(C(=O)NCCc2ccccn2)c1 | 9%
O=C(Cn1cc(C(F)(F)F)ccc1=O)Nc1ccc(N2CCOCC2)cc1 | -2%
CC(C)(CO)Cc1cc(C(C)(C)C)c(O)c(C(C)(C)C)c1 | -11%&-14%
O=C(C(Cc1ccccc1)n1cccc1)N1CCN(c2cccc(Cl)c2)CC1 (configuration not stated) | -20%
CC(C)(C)c1ccc(-c2nnc(SCC(=O)Nc3sc4c(c3C#N)CCCC4)o2)cc1 | -25%
CCCCN1C(=O)CC(N2CCOCC2)C1=O (configuration not stated) | -17%
CC(C)Oc1ccc(Cl)cc1Nc1nc(NCCO)nc(N2CCCC2)n1 | -2%

Additional entries.
SMILES | VDR inh
CCN(CC)S(=O)(=O)c1cccc(C(=O)NCC2(N3CCOCC3)CCCCC2)c1 | -9%
CCOCCCNC(=O)c1cn2c3c(ccc(Cl)c3c1=O)OC(C)C2 (configuration not stated) | 2%
Cn1nccc1C(=O)NC1CCCc2c1cnn2-c1cc(F)cc(F)c1 (configuration not stated) | 1%
CC(C)(C)c1ccc(NC(=O)COC(=O)c2ccc3ncsc3c2)cc1 | 8%
Cc1ccc(S(=O)(=O)NCc2ccco2)cc1C | 2%
COc1cc(NC(=O)C/C(C)=N/NC(=O)C(=O)NCCO)c(OC)cc1Cl | -30%
CC(C)N(Cc1ccccc1)C(=O)COC(=O)c1c(F)cccc1F | -4%
Cc1ccc2onc(CC(=O)N3CCN(c4ccccc4)CC3)c2c1 | 2%
Cc1ccc(Nc2c(-c3ccc(N4CCOCC4)cc3)nc3cnccn23)cc1 | 8%
C=CCn1c(COc2ccc(F)cc2)nnc1SCC(=O)NC(=O)NCc1ccco1 | 5%
CC1(C)CC2CC(C)(CN2C(=O)COC(=O)c2cccnc2Cl)C1 (configuration not stated) | 1%
CC(C)C[C@H](NC(=O)[C@H](Cc1ccccc1)NC(=O)CNC(=O)[C@H](CCC(=O)O)NC(=O)[C@H](CCCNC(=N)N)NC(=O)[C@H](C)NC(=O)[C@H](C)NC(=O)[C@@H](N)CC(=O)O)C(=O)N[C@@H](CC(=O)O)C(=O)N[C@H](C(=O)N[C@@H](CC(C)C)C(=O)N[C@H](C(=O)N[C@H](C(=O)N[C@@H](CC(C)C)C(=O)N[C@@H](Cc1cnc[nH]1)C(=O)N[C@@H](CCCNC(=N)N)C(=O)N[C@@H](C)C(=O)NCC(=O)N[C@@H](C)C(=O)N[C@@H](CCCNC(=N)N)C(=O)O)C(C)C)C(C)C)[C@@H](C)O | 16%
O=C1C2CC=CCC2C(=O)N1Cc1nnc(-c2ccccc2Br)o1 (configuration not stated) | -10%
CC(C)(C)NC(=O)NC(=O)CSc1ccc(S(=O)(=O)N2CCCCC2)cn1 | 5%
Cc1cc(C)cc(C(=O)N2CCN(c3ccccn3)CC2)c1 | -5%
O=C1C2C3C=CC([C@@H]2C(=O)N1c1nccs1)C31CC1 (some centres not stated) | -1%
CC(C)N(Cc1nc(-c2ccc(Cl)cc2)no1)C(=O)c1cccs1 | -2%
Cc1ccc(S(=O)(=O)Nc2c(C)[nH]c(=O)[nH]c2=O)cc1C | 12%
O=C(NNC1=NC2(CCCC2)Cc2ccccc21)c1cccnc1 | -12%
O=C(CCS(=O)(=O)c1nc(-c2ccc3c(c2)OCO3)cc(C(F)(F)F)n1)Nc1ccc(F)cc1F | 40µM*
CCOC(=O)c1c(N)ssc1=S | -26%
Fc1ccc(OCc2nnc(-c3ccccc3Br)o2)c(Cl)c1 | 5%
CCOc1ccccc1C(O)C1=CC(=O)c2ccccc2C1=O (configuration not stated) | -24%
Cc1ccccc1OC(=O)c1cccnc1 | -20%
COc1cc2ccc(=O)oc2c(O[C@@H]2O[C@H](CO)[C@@H](O)[C@H](O)[C@H]2O)c1O | -26%&-9%

A stretch taken from the entries so far, as a working copy:
SMILES | VDR inh
CC(C)N(Cc1nc(-c2ccc(Cl)cc2)no1)C(=O)c1cccs1 | -2%
Cc1ccc(S(=O)(=O)Nc2c(C)[nH]c(=O)[nH]c2=O)cc1C | 12%
O=C(NNC1=NC2(CCCC2)Cc2ccccc21)c1cccnc1 | -12%
O=C(CCS(=O)(=O)c1nc(-c2ccc3c(c2)OCO3)cc(C(F)(F)F)n1)Nc1ccc(F)cc1F | 40µM*
CCOC(=O)c1c(N)ssc1=S | -26%
Fc1ccc(OCc2nnc(-c3ccccc3Br)o2)c(Cl)c1 | 5%

VDR inh: entries above that show a hit.
SMILES | VDR inh
O=C(CCS(=O)(=O)c1nc(-c2ccc3c(c2)OCO3)cc(C(F)(F)F)n1)Nc1ccc(F)cc1F | 40µM*

(more compounds)
SMILES | VDR inh
Cc1ccc(-c2nn(CC(=O)NC3CCCCC3)c3c2cnc2ccc(F)cc23)cc1C | -3%
CCOC(=O)N1CCC(N2CCCC(CO)(Cc3cccc(Cl)c3)C2)CC1 (configuration not stated) | -2%
CCCC(=O)Nc1sc(C)c(C)c1C#N | 2%
Cc1noc(C)c1COc1ccccc1C(=O)N(C)CC(=O)Nc1ccc(F)cc1 | -10%
O=C(NCc1ccc2c(c1)OCO2)C1CC(=O)N(C2CCCCCC2)C1 (configuration not stated) | -6%
Cc1cccc(NC(=O)c2cc(=O)[nH]c3ccccc23)c1 | -28%
CC(=O)Nc1nonc1-c1nnc(SCc2ccc(C)cc2)n1C | -3%
O=C(CNS(=O)(=O)c1c(Cl)cccc1Cl)OCC(=O)c1ccc[nH]1 | 2%
CCOC(=O)c1cc(C#N)c(SC(C)C(=O)NC2CCCCC2)nc1C (configuration not stated) | -8%
CCOC(=O)C1=C(C(=O)OCC)N(Cc2ccccc2)CCC1=O | -25%
CCOC(=O)c1ccc(-c2c(-c3ccccc3OC)sc3ccc(OC)cc23)cc1F | -16%
O=C(CN1CCOCC1)Nc1ccc(Cl)cn1 | 6%
CC(=C/c1ccccc1)/C=N/NC(=O)c1ccc2nc[nH]c2c1 | -12%
c1ccc(CNc2cc(-c3cccnc3)ncn2)cc1 | 4%
CCC(=O)Nc1ccc(C(=O)OCC(=O)c2cccs2)cc1 | 12%
CCN(CCCNC(=O)c1cc2c(=O)n(CC)c3ccccc3c2s1)c1cccc(C)c1 | -7%
O=C1C2C3C=CC(CC3)C2C(=O)N1c1ccccc1[N+](=O)[O-] (configuration not stated) | 8%
Cn1nnc(NC(=S)NC(=O)c2ccc(-c3ccc(Br)cc3)o2)n1 | 1%
Nc1nnc2c(n1)[nH]c1ccccc12 | -1%
COc1cc(C(=O)NCc2cn3ccccc3n2)cc(OC)c1OC | 6%
COc1ccc(/C=N/NC(=O)C(=O)NCc2cccnc2)cc1 | 1%
CCCOC(=O)c1c(NC(=O)C2CCCO2)sc(C(=O)OC)c1C (configuration not stated) | 79µM*
Cc1ccc(-c2nn(-c3ccccc3)cc2C2CC(c3ccccc3)=NN2C(=O)CCC(=O)O)cc1 (configuration not stated) | 13%
CCOc1ccc(C(=O)Cc2ccc3oc(C(=O)O)cc3c2)c(O)c1 | -1%
COc1ccc(C2(CNS(=O)(=O)c3ccccc3)CCOCC2)cc1 | 10%

Gathered by group, the entries above containing a nitro group on carbon (5)
SMILES | VDR inh
O=C(c1cc([N+](=O)[O-])[nH]n1)N1CCSCC1 | -11%
O=C(Nc1ccc(Nc2ccncc2)cc1)c1ccc([N+](=O)[O-])cc1 | -16%
O=C1NC(=O)/C(=C\c2ccccc2OCc2cccc([N+](=O)[O-])c2)N1 | -11%
C/C(Cn1nnc([N+](=O)[O-])n1)=N\NC(=O)c1ccccc1Cl | -4%
O=C1C2C3C=CC(CC3)C2C(=O)N1c1ccccc1[N+](=O)[O-] (configuration not stated) | 8%

The results go on.
SMILES | VDR inh
CCCCc1c(O)nc(SCC(=O)Nc2cccc3ccccc23)n(-c2ccccc2OC)c1=O | 10%
NS(=O)(=O)c1cccc(NC(=O)c2cc(=O)c3ccccc3o2)c1 | -9%
O=C(c1ccc2c(c1)N(Cc1cccc(Cl)c1)C(=O)c1ccccc1S2=O)N1CCC(Cc2ccccc2)CC1 (configuration not stated) | 13%
Cc1csc(NC(=O)CCC(=O)c2cccs2)n1 | -10%
CCc1cc(C)cc(OCCNC(=O)c2cncc(Br)c2)c1 | 4%
COc1ccc2[nH]c(CN3CCC(CO)(CCOc4ccccc4)CC3)c(C)c2c1 | -8%
COc1ccc(N=Cc2c(OC)ccc3ccccc23)cc1 | -5%
Cc1cccc(-c2nnc(SCC(=O)Nc3ccc(C)c(C)c3)o2)c1 | 15%
CC(=O)N(c1ccccc1)c1nc2ccccc2s1 | -2%
CCC1CCCCN1CCCNC(=O)c1cn(CC)c2ccc(S(=O)(=O)N(C)C3CCCCC3)cc2c1=O (configuration not stated) | -6%&16%
O=C(/C=C/c1ccco1)NCc1ccc(F)cc1 | 12%
CCCCc1ccc(NC(=S)NN2CCOCC2)cc1 | -13%
O=C(NCCN1CCN(C(=O)c2cc3ccccc3oc2=O)CC1)c1cc2ccccc2oc1=O | 12%
Cc1noc(NS(=O)(=O)c2ccc(NC(=O)CSc3ncccn3)cc2)c1C | -17%
Cc1cccc(NS(=O)(=O)c2ccc(C)c(C(=O)N(C)C)c2)c1 | -9%

Compound activity deposited in PubChem by National Center for Advancing Translational Sciences (NCATS).
